Bioassay records as filed in PubChem BioAssay.
MT1-MMP promoter: inhibitors of MT1-MMP promoter transcription, cell-based, luciferase reporter, luminescence (AID 618). MT1-MMP promoter luciferase reporter cells, luminescence. calls from a first round at 10 µM; hits with a dose series show EC50 in µM. hit rate 0.62% among 87,000;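 active = over half of the reporter light lost at 10 µM or EC50 under 50 µM; inactive = the rest and hits that failed the dose series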;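 also: actives suppress MT1-MMP promoter-driven transcription so potencies describe inhibitors; HT1080 fibrosarcoma cells; overnight exposure; toxic or luciferase-blocking compounds were not removed from the actives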
WNV protease inh: inhibitors of WNV NS2B-NS3 protease, primary screen, biochemical, fluorogenic substrate | Genome polyprotein (West Nile virus), P06935 | hit rate 0.18% among 65,000 | z-score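 (tested at a level between 10 and 100 µM)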 | fluorogenic substrate Ex360/Em465; hits give low values;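 active = z-score at -3 or under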;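 also: score is relative to mean and spread of the compound wells of a plate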
Target sequence (P06935 1371-1501 limits assumed): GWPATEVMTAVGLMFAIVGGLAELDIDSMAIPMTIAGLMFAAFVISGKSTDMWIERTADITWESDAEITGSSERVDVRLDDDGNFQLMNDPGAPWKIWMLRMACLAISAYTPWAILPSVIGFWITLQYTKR
Target sequence (P06935 1502-1679 limits assumed): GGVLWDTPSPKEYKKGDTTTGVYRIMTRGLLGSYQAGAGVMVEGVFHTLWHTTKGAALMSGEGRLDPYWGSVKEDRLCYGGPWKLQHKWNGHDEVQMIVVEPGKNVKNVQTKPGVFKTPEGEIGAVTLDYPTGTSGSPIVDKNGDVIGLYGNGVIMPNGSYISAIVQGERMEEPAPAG
Hsc70: Hsc70 inhibitors, probe displacement, primary screen, biochemical, fluorescence polarization (AID 568); 83,000 tested, under 10 active; displacement, % at 20 µM; hits with a dose series show IC50 in µM; Heat shock cognate 71 kDa protein (Homo sapiens); Hsc70 fluorescence polarization, probe displacement; higher % means a stronger effect; strong numbers were not always called active;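 active = displacement above 50% without optical interference and an IC50 on retest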;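 also: ATPase domain with a fluorescein-tagged ATP probe; 0% = vehicle and 100% = excess ADP; read after one hour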
Starred values were filed as active, the others as inactive; i = inactive; / = no result given.

Sequence of screens: MT1-MMP promoter, WNV protease inh, Hsc70
> Cc1ccc2cc3cc(C(=O)NCCN4CCOCC4)oc3nc2c1
    i, -0.21, 7.3%
> CCOC(=O)COc1ccc(S(=O)(=O)Nc2cccc(SC)c2)cc1
    i, /, 4.0%
> COc1ccc(-c2nnc(NC(=O)c3cc(Cl)ccc3Cl)o2)cc1
    i, -0.86, 4.1%
> COc1ccc(CNC(=O)CN(C(=O)CCC(=O)Nc2ccccn2)c2ccccc2OC)cc1
    i, 0.86, -8.6%
> Cn1c(=O)c2c(nc(SCCN3CCOCC3)n2Cc2ccc(F)cc2)n(C)c1=O
    i, -2.9, -0.9%
> O=C(CCc1nc(-c2ccccc2F)no1)NC1CCCCC1
    i, -0.42, 1.2%
> COc1cccc(-c2nc(-c3ccccn3)no2)c1OC
    i, 0.6, 4.5%
> CCN(CC)c1ccc(NC(=O)CSc2nnc(N)s2)cc1C
    i, 1.8, 2.6%
> Cn1nc(-c2ccc(N3CCOCC3)c(NS(=O)(=O)c3ccc(Cl)cc3)c2)c2ccccc2c1=O
    i, /, -1.3%
> CCOc1ccc(Cn2nnc(C(=O)Nc3cc(OC)cc(OC)c3)c2N)cc1
    i, 0.42, 1.0%
> CCOn1c(SC(C)C)nc2ccccc2c1=O
    i, /, -1.1%
> O=C(c1cccc(C(=O)N2CCN(Cc3ccccc3)CC2)c1)N1CCN(Cc2ccccc2)CC1
    i, -0.35, -1.9%
> c1ccc(-c2oc3ncnc(NCCCN4CCOCC4)c3c2-c2ccccc2)cc1
    i, -0.34, 0.5%
> Cc1ccc(C(=O)Nc2ccccc2C(=O)NC2CCCCC2)cc1S(=O)(=O)N1CCOCC1
    i, 0.33, 4.6%
> CCCN1C(=O)SC(CC(=O)Nc2ccc(C)cc2)C1=O (stereo not given)
    i, /, 3.3%

The closing three compounds of the part above come first, to join the parts.
Sequence of screens: MT1-MMP promoter, WNV protease inh, Hsc70
> c1ccc(-c2oc3ncnc(NCCCN4CCOCC4)c3c2-c2ccccc2)cc1
    i, -0.34, 0.5%
> Cc1ccc(C(=O)Nc2ccccc2C(=O)NC2CCCCC2)cc1S(=O)(=O)N1CCOCC1
    i, 0.33, 4.6%
> CCCN1C(=O)SC(CC(=O)Nc2ccc(C)cc2)C1=O (stereo not given)
    i, /, 3.3%
> O=C(Nc1c2c(nn1-c1ccc(F)cc1)CS(=O)C2)C12CC3CC(CC(C3)C1)C2 (stereo not given)
    i, 1.4, 2.8%
> C=C(C)C1Cc2c(C)nn(-c3nc(C)cc(C)n3)c2C1 (stereo not given)
    i, -0.23, 1.3%
> CN1CC[n+]2c(CN3C(=O)c4ccccc4C3=O)csc21
    i, -0.15, 7.2%
> Cc1ccccc1NC(=O)CN(c1ccc(F)cc1)S(C)(=O)=O
    i, -0.09, 1.8%
> O=c1cc(-c2ccccc2)n(S(=O)(=O)c2ccc3ccccc3c2)o1
    i, /, 0.7%
> O=C(CN1/C(=C(/O)c2ccccc2)C(=O)c2ccccc2S1(=O)=O)c1ccccc1
    i, /, 3.6%
> COC(=O)C1CSc2[nH]c(=O)sc2C1c1ccc(O)c(OC)c1 (stereo not given)
    i, /, 3.4%
> CCOc1ccc2c(c1)C(c1ccccc1)=NNC(c1ccccc1)=N2
    i, /, 3.2%
> CC(=O)Nc1ccc(S(=O)(=O)NCc2csc(-c3cccnc3)n2)cc1
    i, -0.19, -0.7%
> Cc1cc(C)c(O)c(-c2cc(C(=O)Nc3ccc(S(=O)(=O)N4CCOCC4)cc3)[nH]n2)c1
    i, -1.3, -4.7%
> CC(=O)NC(C)(C)C1CC=C(C)/C(=N\O)C1 (stereo not given)
    i, 0.81, -0.9%
> Clc1ccc(OCCSc2ncccn2)cc1
    i, /, 0.3%
> COC(=O)c1c(NC(=O)CN2CCC(C(N)=O)CC2)c2c(C)cccc2n1C
    i, 0.49, -3.0%
> O=C(CC1Nc2ccccc2NC1=O)NCC1COc2ccccc2O1 (stereo not given)
    i, 1.6, -0.9%
> CCOc1ccc(NC(=NCc2ccc3c(c2)OCO3)SC2CC(=O)N(c3ccccc3)C2=O)cc1 (stereo not given)
    i, /, -4.5%
> COc1ccc2c(C(=O)CN3CCC(C)CC3)c[nH]c2c1
    i, /, -2.1%
> COc1ccc(-c2cc(C(F)(F)F)n3nc(C(=O)O)nc3n2)cc1
    i, -0.53, 6.2%
> CC(C)(C)c1cc(C(=S)N2CCN(CCO)CC2)cc(C(C)(C)C)c1O
    i, 0.04, -1.8%
> CC(C)c1cc(C(=O)NC2CCCCC2)no1
    i, -0.17, -8.0%
> CCN1CCN(Cc2nc3c(c(=O)n(C)c(=O)n3C)n2CCCc2ccccc2)CC1
    i, -1.1, 1.5%
> COc1ccc(Cc2nnc(SCc3nc4ccccc4c(=O)[nH]3)n2C)cc1
    i, -1.1, 2.4%
> Nc1ncnc2nc(SCC(=O)N3CCN(c4ccccc4)CC3)[nH]c12
    i, -0.26, 5.9%
> C=CC[n+]1c(-c2ccc(OC)c(OC)c2)csc1NNC(=O)Nc1ccccc1
    i, /, 1.7%
> CCOC(=O)C1CCN(C(=O)Cc2cccc3ccccc23)CC1
    i, /, -0.6%
> c1ccc(CC2CCN(Cc3nc(-c4ccccc4)no3)CC2)cc1
    i, 0.01, -2.1%
> Cc1nc2[nH]c(=O)c3c(n2n1)NC1=C(C(=O)CC(C)(C)C1)C3c1ccc(F)cc1 (stereo not given)
    i, -0.54, -0.6%
> C=CCn1c(NCCc2ccccc2)nc2c1c(=O)n(C)c(=O)n2C
    i, 1.9, 3.2%
> O=C(Cc1cccs1)Nn1c(Cc2cccs2)nc2ccccc2c1=O
    i, -0.1, -3.2%
> COc1ccc(CN2CCN(C)CC2)cc1OCc1ccccc1
    i, -0.46, 1.1%
> O=C(O)CC1C(=O)OCN1C(=O)OCc1ccccc1 (stereo not given)
    i, -0.34, -3.8%
> CN(C)CCNC(=O)c1coc(=O)c(Br)c1
    i, -0.64, 0.0%
> Cc1ccc(Cl)cc1N1CCN(C(=O)CSc2nnc3n2C(C)(C)Cc2ccccc2-3)CC1
    i, /, 2.7%
> CCC(=O)Nc1nonc1-c1nc2ccccc2n1CC(C)C
    i, -0.33, -2.2%
> CC1(C)Cc2cccc(OCC(O)CN3CCN(c4ccccn4)CC3)c2O1 (stereo not given)
    i, -0.52, -0.6%
> CCCn1cc(SCC(=O)NCc2ccco2)c2ccccc21
    i, -0.16, -1.0%
> CC(C)(C)OC(=O)N[C@H](Cc1ccccc1)C(=O)N1CCC(C(=O)O)CC1
    i, -0.3, 3.5%
> CCN(C(=O)CSc1ccc2c(c1)OCCO2)C1CCS(=O)(=O)C1 (stereo not given)
    i, 0.8, 3.9%
> O=C(CSc1nnc(Cn2cnc3ccccc32)o1)Nc1cccc2ccccc12
    i, /, 1.2%
> CN(C)/C=C1/C(=O)Nc2ccccc21
    i, 0.37, -3.4%
> O=C(Cn1c(=O)oc2ccccc21)c1ccccc1
    i, 0.0048, 2.2%
> COc1ccc(-c2cc(C(=O)Nc3ccc(C)cc3)no2)cc1
    i, 1.9, 2.6%
> Brc1ccc(-c2cnc(-c3cccs3)o2)cc1
    i, 0.14, -1.1%
> CCC(C)Nc1nc(OCC(F)(F)F)nc(OCC(F)(F)F)n1 (stereo not given)
    i, -0.64, 2.8%
> CCCCCC1CC(/C(C)=N/NC(N)=O)OC1=O (stereo not given)
    i, /, 2.0%
> Cc1ccc2c(c1)cc(CN(Cc1ccco1)C(=O)COc1ccccc1)c1nnnn12
    i, -0.38, 4.3%
> Cn1c(=O)oc2cc(S(=O)(=O)N3CCC(C(=O)NCc4cccs4)CC3)ccc21
    i, -0.32, 4.8%
> c1ccc(N2CCN(c3ncnc4c3oc3ccccc34)CC2)cc1
    i, -1, 3.2%
> O=C(Nc1cccc(OC(F)(F)F)c1)c1ccc(Br)o1
    i, 1.7, 1.0%
> CN1CCN(C(=O)CCCOc2cc(=O)n(C)c3ccccc23)CC1
    i, /, -1.2%
> CN(C)c1ccc(C2C=C(c3ccc(Cl)cc3OC(F)F)Nc3ncnn32)cc1 (stereo not given)
    i, -0.6, -0.4%
> Cc1nnc(SCC(=O)N2CCC(C(=O)Nc3nccs3)CC2)n1Cc1ccccc1
    i, 0.18, 4.4%
> O=C(COC(=O)c1ccc(Br)o1)NCCCc1ccccc1
    i, -0.51, 3.2%
> CCn1c(=O)cc(SCC(=O)N2CCN(C)CC2)c2ccccc21
    i, /, 3.1%
> O=C(C1CCN(S(=O)(=O)c2cccc3cccnc23)CC1)N1CCN(C2CCCC2)CC1
    i, 1.2, 4.5%
> Cc1ccc(C)c2[nH]c(=O)c(C(c3nnnn3Cc3ccco3)N3CCc4ccccc4C3)cc12 (stereo not given)
    i, 0.19, -23%
> CSc1nnc(-c2sc3cc(C(F)(F)F)cnc3c2-c2ccccn2)n1C
    i, /, 2.6%
> Cc1ccc(S(=O)(=O)N2CCN(S(=O)(=O)N(C)C)CC2)cc1
    i, -0.64, 8.9%
> N#Cc1nc(-c2ccco2)oc1NCc1ccco1
    i, 0.96, -0.8%
> Cn1c(CCN2CCCCC2)nc2cc(NC(=O)NC3CCCCC3)ccc21
    i, -1.3, 1.7%
> CCN(C(=O)CN1CCCc2ccccc21)c1c(N)n(Cc2ccccc2)c(=O)[nH]c1=O
    i, -1.5, 9.1%

Next section.
Sequence of screens: MT1-MMP promoter, WNV protease inh, Hsc70
> CC(C)(C)NC(=O)Cn1nnc(-c2ccccc2NC(=O)c2ccco2)n1
    i, /, 2.3%
> COc1ccc(OC)c(S(=O)(=O)Nc2ccc(OCC(=O)O)cc2)c1
    i, -0.36, -2.2%
> C=CCn1cc(Cl)c(=O)n(CC=C)c1=O
    i, -0.56, 4.0%
> O=C1CCCc2c1[nH]c1c(Br)cccc21
    i, -1.4, 5.5%
> N=c1c(C(=O)NCc2ccccc2)cc2c(=O)n3ccccc3nc2n1CCCN1CCOCC1
    i, 1.9, 1.0%
> CCC(=O)Nc1cc(C)c(NC(=O)CCc2ccccc2)cn1
    i, -0.58, 36%
> Nc1cc(=O)[nH]c(SCC(=O)Nc2cccc(Cl)c2)n1
    i, /, 2.7%
> CCC(SCC(=O)OC)C(=O)Nc1nnc(C(C)C)s1 (stereo not given)
    i, -1.2, -3.2%
> O=C(CSCc1nc2ccccc2[nH]1)N1CCN(c2cccc(Cl)c2)CC1
    i, -0.26, 0.0%
> Oc1ccccc1CNc1nc2ccccc2n1CCN1CCCCC1
    i, 0.26, 7.0%
> O=C(Nc1cccc(O)c1)c1cccc(S(=O)(=O)N2CCCC2)c1
    i, -0.28, -2.6%
> Cc1ccc(-c2cc(C(=O)Nc3cccnc3)c3ccccc3n2)o1
    i, 1.6, 5.4%
> Cc1ccc(S(=O)(=O)c2ccc(C)cc2)cc1
    i, /, -1.2%
> CCOC(=O)c1c(C)[nH]c(C(=O)CN2C(=O)NC(C)(c3ccc4ccccc4c3)C2=O)c1C (stereo not given)
    i, /, -6.3%
> Cc1nc2sc3c(c2c(=O)o1)CCC3
    i, -0.71, -0.4%
> Cc1cc(C(=O)Nc2cccc(O)c2)co1
    i, -0.98, -1.1%
> CCOC(=O)C1CCCN(C(=O)C2CCN(c3nnc(-n4cccc4)s3)CC2)C1 (stereo not given)
    i, -0.9, -0.3%
> O=C1CCCC2=C1C(c1ccsc1)CC(=O)N2c1ccccc1 (stereo not given)
    i, 1, 0.9%
> CCCn1c(=NC(C)=O)c(C(=O)OCC)cc2c(=O)n3ccccc3nc21
    i, 2.4, 0.2%
> CC(C)COC(=O)C1C2C=CC3(CN(C4CCCC4)C(=O)C13)O2 (stereo not given)
    i, -0.22, 2.9%
> COc1ccccc1NC(=O)c1sc2nc(-c3ccco3)ccc2c1N
    i, 0.38, -7.4%
> O=C(NCC1CCCO1)c1ccc(/C=N/O)nc1 (stereo not given)
    i, -2.8, -3.3%
> COc1cccc(S(=O)(=O)NCc2ccc3c(c2)OCO3)c1
    i, /, 0.0%
> CCOC(=O)C(CC(=O)O)N1CCCCC1 (stereo not given)
    i, -3.1*, -2.5%
> CC(C)NCC(O)Cn1c2c(c3ccccc31)CCc1c-2cnn1-c1ccccc1 (stereo not given)
    i, -0.71, 0.5%
> COc1ccc(C(=O)NCc2ccccc2OC)c(OC)c1
    i, -1.3, 6.7%
> COc1ccccc1-n1cnnc1SCC(=O)c1cc(C)n(Cc2cccs2)c1C
    i, -0.84, -0.5%
> Cc1cc(NC(=O)c2cc(-c3ccco3)on2)nn1Cc1ccc(Cl)cc1
    i, -1.2, -4.7%
> CC1Cc2ccccc2N1C(=O)Cn1nc(C(=O)O)c2ccccc2c1=O (stereo not given)
    i, -0.81, -1.5%
> Cc1nc2c(Cl)cc(Cl)cc2[nH]1
    i, /, 3.1%
> COc1ccc2c(C)cc(=O)[nH]c2c1
    i, /, 1.6%
> COc1c(C)cccc1C(=O)Nc1ccc(N2CCOCC2)c(Cl)c1
    i, /, 2.7%
> O=C(CCCN1C(=O)CCC1=O)Nc1ccc2c(c1)OCO2
    i, -0.45, 4.0%
